Screening data (PubChem BioAssay)
Rango-impB inh = Rango-importin beta binding inhibition | Q14974 | Rango CFP/YFP FRET sensor + importin beta, 45 min | Potency, µM (series often up to 92.2 µM), for inactives: at the top dose inhibition of complex formation | 340,000 compounds, 0.031% hits | AID 540263; active = rising FRET ratio curve, often small or poorly fitted; inconclusive = mostly compound fluorescence or quenching in the first reads; inactive = flat curves in all reads;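 also: potency is read from the fitted curve at half-maximal effect; 0% = DMSO wells and 100% = buffer wells lacking importin beta; nearly all actives have a fitted effect of over 15% in size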
Target sequence (Q14974 whole entry, looked up): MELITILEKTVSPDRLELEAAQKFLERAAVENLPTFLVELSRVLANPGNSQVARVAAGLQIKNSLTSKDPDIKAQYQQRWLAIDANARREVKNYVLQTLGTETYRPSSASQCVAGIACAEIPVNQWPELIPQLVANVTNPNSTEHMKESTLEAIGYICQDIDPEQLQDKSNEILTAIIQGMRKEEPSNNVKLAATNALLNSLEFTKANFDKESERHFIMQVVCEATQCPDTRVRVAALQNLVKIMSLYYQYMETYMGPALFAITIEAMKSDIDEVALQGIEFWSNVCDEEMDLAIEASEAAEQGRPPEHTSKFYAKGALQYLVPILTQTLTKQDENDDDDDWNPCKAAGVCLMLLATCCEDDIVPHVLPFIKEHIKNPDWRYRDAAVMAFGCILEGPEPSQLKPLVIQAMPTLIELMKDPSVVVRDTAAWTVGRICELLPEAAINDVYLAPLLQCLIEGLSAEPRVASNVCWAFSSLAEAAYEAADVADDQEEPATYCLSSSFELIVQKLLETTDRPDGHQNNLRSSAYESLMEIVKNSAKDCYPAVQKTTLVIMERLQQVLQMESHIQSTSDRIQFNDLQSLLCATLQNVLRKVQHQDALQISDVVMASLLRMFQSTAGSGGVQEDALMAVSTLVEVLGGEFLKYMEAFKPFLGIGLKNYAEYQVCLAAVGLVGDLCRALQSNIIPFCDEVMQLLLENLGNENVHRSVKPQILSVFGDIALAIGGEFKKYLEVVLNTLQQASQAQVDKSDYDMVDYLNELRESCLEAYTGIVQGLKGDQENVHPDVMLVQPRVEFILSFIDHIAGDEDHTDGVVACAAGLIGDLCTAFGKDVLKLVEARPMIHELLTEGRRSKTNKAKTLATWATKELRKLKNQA
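Inhibition scored from the CFP 486 nm/YFP 530 nm FRET ratio 45 min after adding 0.125 microM importin beta to 50 nM Rango biosensor preincubated 5 min with compound (room temperature, PBS with DTT, Tween-20, BSA). No-importin wells as positive control.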
Rango release inh = inhibition of RanGTP-driven Rango-importin beta dissociation; O95149+P62826; Biochemical FRET Rango-importin beta, RanGTP-induced dissociation; Potency, µM (series often up to 46.1 µM), for inactives: top-dose activity change, negative = inhibition; 340,000 compounds, 0.071% hits; AID 540253; active means falling FRET ratio curve, often poorly fitted, with flat reads before Ran was added; inconclusive means other falling curves, or compound fluorescence or quenching; inactive means flat or rising ratio curve;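 also: potency is read from the fitted curve at half-maximal effect; % of control where 0% means no effect; nearly all actives have a fitted effect of over 45% in size; -100% = wells without RanGTP and RCC1; the record marks most hits as doubtful in a second field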
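Compounds preincubate 5 min with complex of recombinant Rango and importin beta in PBS with 1 mM DTT. Ran (0.6 uM) loaded with 2 mM GTP plus 0.2 uM RCC1 starts dissociation; FRET is recorded 45 min later.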
miR-21 reporter = miR-21 reporter, rising signal | HeLa miR-21 FLuc reporter, luciferase, 48 h | Potency, µM (doses to about 38.3 µM), for the others: at the highest dose reporter change, positive = more light | 340,000 tested, under 10 active; active = well fitted rising curve with a large enough effect; inconclusive = small, poorly fitted or top-dose-only effect; inactive = no such curve, though single readings can be large or run the other way;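 also: % of control where 0% means no effect; miR-21 action dims this reporter so a rising signal means less miR-21 action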
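Luminescence from a firefly luciferase reporter carrying a miR-21 binding site downstream, stably expressed under a CMV promoter in HeLa cells that make miR-21 endogenously, reports miRNA modulation after 48 h compound exposure up to approximately 40uM final.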
GLA inh pH 4.5 = alpha-galactosidase A (human) inhibition, pH 4.5; purified enzyme, 4-MU-alpha-Gal fluorescence, pH 4.5; AID 1467; P06280; 230,000 tested, under 10 active; activity change, negative = inhibition, % at 105 µM; inconclusive = small, poorly fitted or top-dose-only inhibition, or a rising curve; inactive = flat fitted curve, though single readings scatter; no compound was filed as active;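 also: 0% = full activity with enzyme and -100% = basal without enzyme; dose as in the result columns while the protocol names 77 µM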
Active calls of the source: *; ? = inconclusive; / = no result given; & = joins results of further samples; [ ] = dose if it differs, or a comment. A portion of the library; count on the stated rates, not on these rows.

Values run as follows: Rango-impB inh	miR-21 reporter	GLA inh pH 4.5	Rango release inh
CCOC(=O)NC(=O)COC(=O)CNC(=O)c1ccc(OCC)c(OCC)c1
  -1.7%	-0.9%	-7.0	-0.4%
COc1ccc(C2NC(=O)NC(C)=C2[N+](=O)[O-])cc1OC (centres undefined)
  0.2%	-14.6%	-5.7	1.3%
Cc1cc(C)nc(N2CCC(C(=O)NCc3cccc(C(F)(F)F)c3)CC2)n1
  -0.7%	-4.5%	-2.4	1.7%
COC(=O)[C@H](CCSC)NC(=O)NCCc1ccccc1F
  -1.3%	-12.3%	2.0	-8.1%
COc1ccc(OC)c(C2C3=C(CCCC3=O)Nc3c2c(=O)n(C)c(=O)n3C)c1 (centres undefined)
  ?	-5.6%	-1.4	?
O=C1CC(C(=O)Nc2ccc(F)c(Cl)c2)N=C(N2CCCCC2)N1 (centres undefined)
  -7.9%	-6.1%	4.6	-12.3%
COc1ccccc1NC(=O)CSc1nn2c(=O)c(C)nnc2s1
  -2.5%	-5.2%	/	-4.8%
O=C(Cc1ccc(Cl)cc1)NCCS(=O)(=O)N1CCN(c2ccccc2F)CC1
  -0.1%	/	/	5.5%
FC(F)(F)c1ccc(-c2noc(CN3CCCN(C4CCCCC4)CC3)n2)cc1
  2.5%	-1.9%	/	-9.6%
COc1cc(OC)c(OC)cc1CNC(=O)c1cccc(S(=O)(=O)N2CCc3ccccc3C2)c1
  2.7%	/	/	5.2%
O=C(NC1CCCC1)C(c1cccs1)N(C(=O)c1ccco1)c1ccc2c(c1)OCCO2 (centres undefined)
  -1.0%	-8.4%	-0.7	1.7%
CCOC(=O)/C(C#N)=C/Nc1ccsc1C(=O)OC
  1.3%	-0.5%	0.7	12.2%
COc1cc(OC)c2c(=O)c(OC)c(-c3ccc(OC)c(OC)c3)oc2c1
  -0.6%	-49.8%	-21.3&9.6	-3.0%
Cc1ccc(-c2csc(N(CC3CCCO3)C(=O)c3ccco3)n2)cc1 (centres undefined)
  2.7%	1.7%	2.4	1.9%
COc1ccc(C2=NOC(CNC(N)=S)C2)cc1 (centres undefined)
  3.9%	-34.2%	-12.8	7.0%

(cont.)
Values run as follows: Rango-impB inh	miR-21 reporter	GLA inh pH 4.5	Rango release inh
COC(=O)C1=C(NC(=O)c2cccs2)CCS1
  /	0.5%	-2.2	/
COc1ccc(C2CC(=O)c3cnc(NC(=O)c4ccccc4)nc3C2)cc1OC (centres undefined)
  -1.2%	-8.3%	6.0	-19.8%
O=C(NCC(c1cccnc1)N1CCOCC1)Nc1ccccc1 (centres undefined)
  1.4%	-3.3%	2.0	27.8%
COC(=O)c1c(C)[nH]c(C(=O)CN2C(=O)C3CC=CCC3C2=O)c1C (centres undefined)
  -1.9%	/	/	1.0%
COC(=O)C1=CN(c2ccc(OC)cc2)C=C(C(=O)OC)C1c1cccc(F)c1
  ?	2.0%	/	?
CN(C)c1ccc(CNC(=O)CN(C)S(=O)(=O)c2cccc3cccnc23)cc1
  -6.5%	-10.3%	0.1	-15.0%
Cc1c(NC(=O)C2CCN(S(=O)(=O)c3ccccc3)CC2)c(=O)n(-c2ccccc2)n1C
  0.8%	-6.3%	7.4	-12.1%
CCc1nnc(NC(=O)C2CCN(c3ncnc4sc(C)c(C)c34)CC2)s1
  -5.0%	/	/	-5.7%
CC1CN(Cc2nc3c(c(=O)[nH]c(=O)n3C)n2CCN2CCOCC2)CC(C)O1 (centres undefined)
  -8.5%	0.6%	2.9	-15.7%
COc1cccc(N2CC(C(=O)Nc3nnc(SCc4ccccn4)s3)CC2=O)c1 (centres undefined)
  -0.6%	-7.9%	-0.8	-19.1%
C[C@H]1CN([C@@H](C)CO)C(=O)Cc2cc(NC(=O)Cc3ccccc3)ccc2O[C@H]1CN(C)C(=O)Nc1cccc2ccccc12
  6.4%	/	/	-5.0%
COc1ccccc1NC(=O)Nc1nc(CC(=O)N2CCN(c3ccc(F)cc3)CC2)cs1
  1.0%	/	/	8.4%
O=C(CNc1cccc(S(=O)(=O)N2CCCC2)c1)Nc1cccc(C(F)(F)F)c1
  -2.2%	/	/	-18.0%
O=C(NC(Cc1cccc(F)c1)C(=O)O)C1CCCCC1 (centres undefined)
  0.4%	/	/	-8.3%
COc1ccc(Cc2nnc(NS(=O)(=O)c3ccccc3)s2)cc1
  -2.7%	-5.9%	6.9	-8.8%

More structures follow:
Values run as follows: Rango-impB inh	miR-21 reporter	GLA inh pH 4.5	Rango release inh
COc1ccc(C(CNC(=O)Cc2cc(OC)c(OC)c(OC)c2)N2CCCC2)cc1 (centres undefined)
  -1.2%	0.7%	-5.3	-10.2%
Cc1ccc(C(=O)NCCOc2cccc(C)c2)cc1
  -2.0%	-56.9%	7.4	-1.5%
CC(=O)N(c1ccc(C(F)(F)F)cc1)S(=O)(=O)c1ccc(N2C(=O)CCC2=O)cc1
  1.3%	-4.2%	/	17.0%
CCOC(=O)N1CCN(C(=O)C2CCN(S(=O)(=O)c3c(C)cc(C)cc3C)CC2)CC1
  -5.2%	7.8%	-0.6	2.2%
COCCCNC(=O)C(=O)NCCCOC(C)C
  1.9%	-11.0%	-4.5	-0.5%
CCOC(=O)Nc1c(C)n(C)n(-c2ccccc2)c1=O
  -3.4%	-1.5%	-0.3	1.4%
CN(C)C=Nc1ccc2nc3c(cc2c1)[nH]c1ccccc13
  0.4%	-36.5%	/	?
Cn1c(=O)c(C(=O)CSc2ccccc2)c(N)n(Cc2ccccc2)c1=O
  ?	-4.7%	8.9[21.1 µM]	-9.0%
Cc1cc2cc(C(c3nnnn3Cc3ccco3)N3CCCCC3)c(=O)[nH]c2cc1C (centres undefined)
  3.9%	-11.1%	2.5	-9.1%
Cc1nnc(SCc2ccc(C(=O)c3ccc(Cl)cc3)o2)n1-c1ccccc1
  0.0%	-14.8%	2.1	-10.3%
CCCCN1C=C(C(=O)OC)C(c2ccccc2Cl)C(C(=O)OC)=C1
  ?	3.2%	?	?
COc1ccccc1C(=O)NC(=O)COC(=O)c1cnc(C)cn1
  1.0%	/	/	0.6%
O=C(NN1C(=O)c2ccccc2C1=O)c1ccccc1[N+](=O)[O-]
  -1.5%	0.1%	-14.6[21.1 µM]	5.8%
CCOC(=O)C1C(C)N=C2SCC(=O)N2C1c1cccc(Br)c1 (centres undefined)
  -4.0%	-3.3%	2.8	-23.2%
Cc1ccc(-n2ncc(C#N)c2/N=C/N(C)C)cc1
  -0.6%	-10.7%	-1.5	10.9%

The listing continues:
Values run as follows: Rango-impB inh	miR-21 reporter	GLA inh pH 4.5	Rango release inh
COc1ccc(N2CCN(C(CNC(=O)c3ccco3)c3ccco3)CC2)cc1 (centres undefined)
  0.7%	/	/	-14.1%
COc1ccc(N2CCN(C(c3cccs3)C(C)NC(=O)C(=O)N3CCCCC3)CC2)cc1 (centres undefined)
  2.3%	0.8%	/	0.2%
CCCCCCc1nc2ccccc2c(=O)n1NC(=O)c1c(O)c2cccc3c2n(c1=O)CCC3
  /	-1.4%	-0.5	/
Cc1nc(CC(C)C)cc(C(=O)N2CCCC(CNS(=O)(=O)c3cccs3)C2)n1 (centres undefined)
  -2.1%	1.1%	6.0	-21.9%
Cc1ccc(NC(=O)N2CCc3ccccc3C2)c(C)c1
  -1.3%	-38.3%	/	-17.0%
O=C(CCCC(=O)NN=Cc1ccccc1Cl)NN=Cc1ccccc1Cl
  0.8%	/	/	10.8%
COc1cc(C2C(C(C)=O)=C(O)C(=O)N2CCN2CCOCC2)ccc1O (centres undefined)
  -4.7%	-3.7%	-3.8	-17.5%
CCCCN(C)C(=O)Cn1nc(-c2ccc(Cl)cc2)ccc1=O
  -2.9%	-4.5%	/	0.2%
CC(=O)COc1ccccc1OC(=O)c1ccco1
  0.6%	-5.5%	11.1	0.9%
Cc1ccc2cccc(OCc3ccc(F)cc3)c2n1
  3.1%	-6.5%	/	-18.8%
COc1ccccc1C(=O)NCc1ccncc1
  1.3%	-2.4%	-9.2	6.3%
CC(C)CN(C(=O)c1cccc(Cl)c1)c1c(N)n(CC(C)C)c(=O)[nH]c1=O
  0.2%	-3.8%	/	-9.5%
NS(=O)(=O)c1ccc(O)c(N2C(=O)c3cccc4c(C(=O)c5ccccc5)ccc(c34)C2=O)c1
  /	-1.3%	-1.6	/
O=C(CSc1ncnc2c1oc1ccccc12)Nc1nccs1
  1.8%	-1.0%	2.0	-0.6%
O=C(NCc1ccco1)C1CC(c2ccc(Cl)cc2)=NO1 (centres undefined)
  -0.1%	-23.1%	-9.2	1.1%

The listing continues.
Values run as follows: Rango-impB inh	miR-21 reporter	GLA inh pH 4.5	Rango release inh
COC(=O)c1cc(NC(=O)CSc2ncn[nH]2)ccc1Cl
  -0.4%	3.2%	/	-4.5%
CC1CC(C)CN(C(=O)CSc2ncnc3sccc23)C1 (centres undefined)
  3.5%	/	/	-5.6%
CCc1ccc(-c2cc(C)no2)cc1S(=O)(=O)Nc1cccc(CN2CCCC2)c1
  0.2%	0.9%	/	2.1%
O=C(NCc1ccco1)c1ccc(CS(=O)Cc2cccc(Cl)c2)o1 (centres undefined)
  ?	0.6%	/	16.8%
CN(C)c1ccc(CNc2ncn[nH]2)cc1
  3.8%	-2.3%	5.5	-6.9%
COC(=O)Cc1c(C)c2ccc(OCC(=O)N(C)C)cc2oc1=O
  5.2%	-1.1%	4.2	11.3%
Fc1ccc(CSc2ccc(-c3cccs3)nn2)cc1
  -1.0%	-30.2%	2.5	3.4%
Cc1cc(C(=O)COC(=O)CCc2nc3ccccc3s2)c(C)n1C
  0.7%	-7.0%	-3.4	7.2%
C[C@H](CO)N1C[C@H](C)[C@@H](CN(C)CC2CCCCC2)Oc2ccc(NC(=O)CCN3CCOCC3)cc2C1=O
  1.4%	/	/	-1.7%
CC(=O)Nc1ccc(S(=O)(=O)N2CCC(N3CCCCC3)CC2)cc1
  0.7%	0.7%	/	11.7%
COc1ccc(/C=C2\SC(=S)N(CCCC(=O)Nc3ccc(C(=O)O)cc3)C2=O)cc1OC
  ?	4.3%	/	?
CC(C)CN1CCN(Cc2ccc(CN3CCCCC3)s2)CC1CCO (centres undefined)
  0.3%	-0.7%	2.7	-7.5%
CCCc1cc(=O)[nH]c(SC(CC)C(=O)Nc2ccccc2C#N)n1 (centres undefined)
  -0.1%	-4.8%	3.2	2.2%
O=C(NC(=S)Nc1cccc(F)c1)c1cccc([N+](=O)[O-])c1
  8.2%	-14.8%	-0.6	18.8%
Cn1c(SCc2ccccc2Cl)nc2ccccc21
  4.5%	-73.4%	-2.0	-1.7%

Additional entries follow.
Values run as follows: Rango-impB inh	miR-21 reporter	GLA inh pH 4.5	Rango release inh
COc1cc2c(cc1OC)C(C1C(=O)CCCC1=O)N(C(=O)CCl)CC2 (centres undefined)
  ?	9.1%	-0.8	-15.0%
O=C(O)c1ccccc1-c1ccccc1C(=O)Nc1ccccc1
  8.5%	-3.5%	2.4	22.5%
Cc1nc(Cl)c(S(N)(=O)=O)c(C)c1Cl
  1.6%	-9.4%	2.2	1.6%
CN(CCOc1ccc(Cl)cc1)C(=O)C1=CC=CN2CCS(=O)(=O)N=C12
  -5.9%	/	/	-10.4%
COc1ccc(S(=O)(=O)N2CCC(C(=O)NC3CC3)CC2)cc1OC
  -5.2%	-3.4%	/	4.8%
Cc1ccc2ncccc2c1
  -5.0%	/	/	3.4%
CC(NC(=O)CCc1ccc(S(=O)(=O)NC2CCCCC2)cc1)c1ccccc1 (centres undefined)
  -0.5%	4.6%	3.4	0.9%
COc1ccc(S(=O)(=O)N2CCOCC2)cc1NC(=O)c1cccc2c(=O)c(C)c(-c3ccccc3)oc12
  -4.7%	-8.0%	-2.5	-4.4%
COc1ccc(C(CCN2CCCCC2)c2c(OC)cc(OC)c3c(-c4ccccc4)cc(=O)oc23)cc1 (centres undefined)
  0.1%	?	?	?
Cc1ccc(C)c(N2N=C(C(=O)Nc3nccs3)CCC2=O)c1
  ?	5.6%	0.8	-6.3%
COc1ccc(C2C3=C(CC(c4ccco4)CC3=O)Nc3ccccc3N2C(C)=O)cc1 (centres undefined)
  -2.3%	-8.3%	4.9	-13.6%
COc1ccc(C(=O)N/N=C(\C)CC(=O)Nc2cccc(C(F)(F)F)c2)cc1
  -2.7%	-5.7%	-12.7	0.0%
O=C(Nc1nnc(Cc2ccccc2)s1)Nc1ccccc1F
  0.8%	-16.6%	/	0.9%
